FGF22 binding – FGF22 (human) thermal shift binding; AID 651658; Q9HCT0; calls only at 9.99 µM; recombinant FGF22 thermal shift, SYPRO orange fluorescence; percent of sucrose octasulfate shift, DMSO zero; 340,000 compounds, 1.5% hits;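 active = melting point raised past a set limit in the mean and every replicate; three in four hits are not shown here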
Target sequence (Q9HCT0 whole entry, looked up): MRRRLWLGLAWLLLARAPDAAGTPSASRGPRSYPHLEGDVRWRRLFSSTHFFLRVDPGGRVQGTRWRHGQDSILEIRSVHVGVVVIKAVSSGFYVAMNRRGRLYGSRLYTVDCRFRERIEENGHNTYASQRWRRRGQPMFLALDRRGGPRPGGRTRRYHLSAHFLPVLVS
Calls only. Only part of the results is shown, so the mix of outcomes need not match the whole.

How did C[C@@H]1CN([C@H](C)CO)S(=O)(=O)c2ccc(C#CC(C)(C)O)cc2O[C@H]1CN(C)C do in these assays?
FGF22 binding: inactive

What do the screens show for `CS(=O)(=O)Nc1ccc2c(c1)[C@H]1C[C@@H](CC(=O)NCCc3ccccc3)O[C@H](CO)[C@H]1O2`?
FGF22 binding: inactive

What do the screens show for `CO[C@H]1CN(C)C(=O)c2ccc(NS(=O)(=O)c3cccc(Cl)c3)cc2OC[C@H](C)NC[C@H]1C`?
FGF22 binding: inactive

What do the screens show for `C[C@@H]1CN([C@@H](C)CO)C(=O)c2cc(NC(=O)Nc3ccc4c(c3)OCO4)ccc2O[C@H]1CN(C)C(=O)NC1CCCCC1`?
FGF22 binding: inactive

Results for CNC[C@@H]1Oc2c(NC(=O)C3CCOCC3)cccc2C(=O)N([C@H](C)CO)C[C@@H]1C ?
FGF22 binding: inactive

What do the screens show for `Cc1noc(C)c1NC(=O)Nc1ccc2c(c1)C(=O)N([C@@H](C)CO)C[C@H](C)[C@@H](CN(C)C(=O)Nc1ccccc1)OCCCC[C@H](C)O2`?
FGF22 binding: inactive

Results for C[C@@H]1CCCCO[C@@H](CN(C)C(=O)NC2CCCCC2)[C@@H](C)CN([C@H](C)CO)C(=O)c2cc(NC(=O)Nc3ccc(C(F)(F)F)cc3)ccc2O1 ?
FGF22 binding: inactive

How did CCC(=O)N1C[C@@H](C)[C@H](OC)CN(C)C(=O)c2ccc(NC(=O)C3CCCCC3)cc2OC[C@@H]1C do in these assays?
FGF22 binding: inactive

How did Cc1ccc(S(=O)(=O)Nc2cccc3c2O[C@H](CN(C)C(=O)Nc2ccc(F)cc2)[C@@H](C)CN([C@H](C)CO)C3=O)cc1 do in these assays?
FGF22 binding: inactive

What do the screens show for `COc1cccc(C(=O)Nc2ccc3c(c2)C(=O)N(C)C[C@@H](OC)[C@@H](C)CN(CCc2ccccc2)[C@H](C)CO3)c1`?
FGF22 binding: inactive

How did C[C@@H]1CN([C@H](C)CO)C(=O)c2cc(C#CC3CCCCC3)cnc2O[C@H]1CN(C)C(=O)NC1CCCC1 do in these assays?
FGF22 binding: inactive

How did COc1ccc(CN(C)C[C@@H]2Oc3ccc(NC(=O)CCC(F)(F)F)cc3C(=O)N([C@H](C)CO)C[C@@H]2C)cc1 do in these assays?
FGF22 binding: inactive

Results for O=C(C[C@@H]1C[C@H]2c3cc(NC(=O)c4ccc5c(c4)OCO5)ccc3O[C@H]2[C@@H](CO)O1)NCc1ccc(Oc2ccccc2)cc1 ?
FGF22 binding: inactive

How did CCC(=O)N1[C@H](C(=O)OC)[C@@H](CO)[C@@H]2Cn3c(ccc(-c4ccccc4F)c3=O)[C@@H]21 do in these assays?
FGF22 binding: inactive

Results for Cc1noc(C)c1NC(=O)N(C)C[C@@H]1Oc2c(NC(=O)c3cnccn3)cccc2C(=O)N([C@@H](C)CO)C[C@@H]1C ?
FGF22 binding: inactive

How did C[C@@H]1CN([C@H](C)CO)C(=O)c2cc(NC(=O)Nc3ccc(C(F)(F)F)cc3)ccc2O[C@@H](C)CCCCO[C@@H]1CN(C)CC1CCCCC1 do in these assays?
FGF22 binding: inactive

How did Cc1noc(C)c1S(=O)(=O)N(C)C[C@H]1OCCCC[C@@H](C)Oc2ccc(NC(=O)Cc3ccccc3)cc2C(=O)N([C@@H](C)CO)C[C@@H]1C do in these assays?
FGF22 binding: inactive

What do the screens show for `CC(C)NC(=O)N(C)C[C@@H]1Oc2c(NC(=O)Nc3ccc(F)cc3)cccc2C(=O)N([C@H](C)CO)C[C@H]1C`?
FGF22 binding: inactive

Results for C[C@H](CO)N1C[C@H](C)[C@@H](CN(C)Cc2ccncc2)Oc2cc(C3=CCCCC3)ccc2S1(=O)=O ?
FGF22 binding: inactive

How did CN1CCN(C(=O)C[C@H]2C[C@H]3c4cc(NC(=O)Cc5ccncc5)ccc4O[C@H]3[C@@H](CO)O2)CC1 do in these assays?
FGF22 binding: inactive

What do the screens show for `C[C@H](CO)N1C[C@H](C)[C@@H](CN(C)C(=O)c2ccccc2)Oc2cc(C#CC3(O)CCCC3)ccc2S1(=O)=O`?
FGF22 binding: inactive

Results for COc1ccc(S(=O)(=O)Nc2ccc3c(c2)C(=O)N([C@@H](C)CO)C[C@@H](C)[C@@H](CN(C)Cc2ccc(C(=O)O)cc2)O3)cc1 ?
FGF22 binding: inactive

What do the screens show for `COc1ccc2c3c([nH]c2c1)[C@H](CO)N(S(=O)(=O)c1cn(C)cn1)CC31CCN(CC2CCCC2)CC1`?
FGF22 binding: inactive

What do the screens show for `COc1ccc2c3c([nH]c2c1)[C@H](CO)NCC31CCN(Cc2ccccc2)CC1`?
FGF22 binding: inactive

Results for COCC(=O)Nc1ccc2c(c1)C(=O)N(C)C[C@@H](OC)[C@@H](C)CN(Cc1ccccc1F)[C@@H](C)CO2 ?
FGF22 binding: inactive

Results for CNC[C@@H]1Oc2cc(C#C[C@@H](C)O)ccc2S(=O)(=O)N([C@@H](C)CO)C[C@H]1C ?
FGF22 binding: inactive

How did C[C@H](CO)N1C[C@H](C)[C@H](CN(C)C(=O)c2cccc(F)c2)Oc2cc(-c3cccnc3)ccc2S1(=O)=O do in these assays?
FGF22 binding: inactive

Results for CN1C[C@H](O)COC[C@H]2O[C@@H](CC(=O)NC3CCCC3)CC[C@@H]21 ?
FGF22 binding: inactive

Results for COC(=O)[C@]12C[C@H](CC(=O)NCCC(C)C)C(=O)N(Cc3ccccc3)C1=C[C@H](C(C)C)O[C@@H]2C1CC1 ?
FGF22 binding: inactive

Results for CN1C(=O)c2cc(NC(=O)c3cc(F)cc(F)c3)ccc2OC[C@H]2O[C@@H](CC(=O)O)CC[C@@H]21 ?
FGF22 binding: inactive

How did CCCNC(=O)N(C)C[C@@H]1Oc2cc(-c3ccccc3)ccc2S(=O)(=O)N([C@@H](C)CO)C[C@H]1C do in these assays?
FGF22 binding: inactive

What do the screens show for `C[C@H]1CN([C@@H](C)CO)C(=O)c2cccc(NC(=O)Nc3ccccc3)c2O[C@@H]1CN(C)Cc1ccc(Cl)c(Cl)c1`?
FGF22 binding: inactive

What do the screens show for `CS(=O)(=O)Nc1ccc2c(c1)[C@H]1C[C@@H](CC(=O)NCc3ccc(Cl)cc3)O[C@H](CO)[C@H]1O2`?
FGF22 binding: inactive

How did O=C(NCc1ccccc1)[C@@H]1[C@@H](CO)[C@@H]2Cn3c(cccc3=O)[C@H]1N2CC1CCCC1 do in these assays?
FGF22 binding: inactive

Results for C[C@@H]1CCCCO[C@@H](CN(C)C(=O)C2CCCCC2)[C@@H](C)CN([C@@H](C)CO)C(=O)c2cc(NC(=O)C3CCCCC3)ccc2O1 ?
FGF22 binding: inactive

What do the screens show for `Cc1noc(C)c1S(=O)(=O)Nc1ccc2c(c1)CC(=O)N([C@H](C)CO)C[C@H](C)[C@@H](CN(C)S(=O)(=O)c1cn(C)cn1)O2`?
FGF22 binding: inactive

Pulled one by one from above, 3 records:
Results for CN1C[C@H](O)COC[C@H]2O[C@@H](CC(=O)NC3CCCC3)CC[C@@H]21 ?
FGF22 binding: inactive

Results for CN1C(=O)c2cc(NC(=O)c3cc(F)cc(F)c3)ccc2OC[C@H]2O[C@@H](CC(=O)O)CC[C@@H]21 ?
FGF22 binding: inactive

What do the screens show for `Cc1noc(C)c1S(=O)(=O)Nc1ccc2c(c1)CC(=O)N([C@H](C)CO)C[C@H](C)[C@@H](CN(C)S(=O)(=O)c1cn(C)cn1)O2`?
FGF22 binding: inactive

(next part)
What do the screens show for `COc1ccc(S(=O)(=O)N(C)C[C@@H]2Oc3ccc(N(C)C)cc3CC(=O)N([C@@H](C)CO)C[C@H]2C)cc1`?
FGF22 binding: inactive

What do the screens show for `CCCCNc1cccc2c1S(=O)(=O)N[C@@H](CC(C)C)CO2`?
FGF22 binding: inactive

What do the screens show for `COc1cccc(CN2CC3(CCN(CC4CC4)CC3)c3c([nH]c4cc(OC)ccc34)[C@H]2CO)c1`?
FGF22 binding: inactive

How did CCCNC(=O)N1[C@H](C#N)[C@H](c2ccc(-c3cccnc3)cc2)[C@H]1CO do in these assays?
FGF22 binding: inactive

What do the screens show for `C[C@@H]1CCCCO[C@H](CN(C)C(=O)c2ccncc2)[C@H](C)CN([C@@H](C)CO)C(=O)c2cc(NC(=O)c3ccncc3)ccc2O1`?
FGF22 binding: inactive

Results for O=C(NC1CCCC1)N1CCCCN2[C@H](CO)[C@H](c3ccc(-c4ccccc4)cc3)[C@@H]2C1 ?
FGF22 binding: inactive

How did COCC(=O)NC[C@@H]1[C@@H](c2ccccc2)[C@@H](CO)N1C(=O)c1ccccc1 do in these assays?
FGF22 binding: inactive

How did O=C(Nc1ccccc1)Nc1ccc2c(c1)[C@H]1C[C@@H](CC(=O)N3CCCCC3)O[C@@H](CO)[C@H]1O2 do in these assays?
FGF22 binding: inactive

What do the screens show for `CC(C)NC(=O)N(C)C[C@@H]1Oc2ccc(NC(=O)Nc3ccccc3)cc2C(=O)N([C@H](C)CO)C[C@H]1C`?
FGF22 binding: inactive

How did O=C(C[C@H]1C=C[C@H](NS(=O)(=O)c2ccccc2)[C@H](CO)O1)NCc1ccncn1 do in these assays?
FGF22 binding: inactive

What do the screens show for `CCCNC(=O)N1CC2(C1)CN(C(=O)c1ccccc1)[C@@H](CO)c1[nH]c3cc(OC)ccc3c12`?
FGF22 binding: inactive

Results for O=C(CN1CCOCC1)NCC[C@@H]1CC[C@@H](NC(=O)Nc2ccccc2)[C@@H](CO)O1 ?
FGF22 binding: inactive

What do the screens show for `C[C@@H]1CN([C@@H](C)CO)C(=O)c2cccc(NS(=O)(=O)c3ccc(Cl)cc3)c2O[C@H]1CN(C)CC1CC1`?
FGF22 binding: inactive

How did C[C@H]1CCCCO[C@@H](CN(C)CC2CCCCC2)[C@@H](C)CN([C@@H](C)CO)C(=O)c2cc(NC(=O)Nc3ccc4c(c3)OCO4)ccc2O1 do in these assays?
FGF22 binding: active

Results for COCC(=O)N1CC2(CN(Cc3nccs3)C2)c2c(n(C)c3cc(OC)ccc23)[C@@H]1CO ?
FGF22 binding: inactive

Results for C[C@H]1CN([C@@H](C)CO)C(=O)Cc2cc(NS(=O)(=O)c3ccc(Cl)cc3)ccc2O[C@H]1CN(C)CC1CC1 ?
FGF22 binding: inactive

Results for COC(=O)C1=C(C)N(Cc2ccccc2C(F)(F)F)C(=NCc2ccc3c(c2)OCO3)NC1c1ccc(F)cc1 (stereo not drawn) ?
FGF22 binding: inactive

What do the screens show for `CCCNC(=O)Nc1ccc2c(c1)OC[C@@H](C)N(C(=O)C1CCOCC1)C[C@H](C)[C@H](OC)CN(C)C2=O`?
FGF22 binding: inactive

Results for C[C@@H]1CN([C@H](C)CO)C(=O)Cc2cc(NC(=O)Nc3cccc4ccccc34)ccc2O[C@@H]1CN(C)C(=O)Nc1ccc(F)cc1 ?
FGF22 binding: inactive

Results for CCN(C[C@H]1N[C@H](CO)[C@H]1c1ccc(C2=CCCC2)cc1)C(=O)c1cccnc1 ?
FGF22 binding: inactive

How did O=C(Cc1ccncc1)NCC[C@@H]1CC[C@@H](NC(=O)Nc2ccc(Cl)cc2)[C@H](CO)O1 do in these assays?
FGF22 binding: inactive

What do the screens show for `COCC(=O)N1CC[C@@H]2[C@H]1c1cc(-c3cccc(OC)c3)ccc1N(C)[C@@H]2CO`?
FGF22 binding: inactive

Results for O=C(C[C@H]1C[C@@H]2c3cc(NS(=O)(=O)c4ccccc4)ccc3O[C@@H]2[C@@H](CO)O1)N1CCCCC1 ?
FGF22 binding: inactive

What do the screens show for `C[C@H](CO)N1C[C@H](C)[C@H](CN(C)C)Oc2c(NS(=O)(=O)c3ccc(Cl)cc3)cccc2C1=O`?
FGF22 binding: inactive

Overlap with the part before: four compounds; new compounds follow.
How did O=C(Cc1ccncc1)NCC[C@@H]1CC[C@@H](NC(=O)Nc2ccc(Cl)cc2)[C@H](CO)O1 do in these assays?
FGF22 binding: inactive

What do the screens show for `COCC(=O)N1CC[C@@H]2[C@H]1c1cc(-c3cccc(OC)c3)ccc1N(C)[C@@H]2CO`?
FGF22 binding: inactive

Results for O=C(C[C@H]1C[C@@H]2c3cc(NS(=O)(=O)c4ccccc4)ccc3O[C@@H]2[C@@H](CO)O1)N1CCCCC1 ?
FGF22 binding: inactive

What do the screens show for `C[C@H](CO)N1C[C@H](C)[C@H](CN(C)C)Oc2c(NS(=O)(=O)c3ccc(Cl)cc3)cccc2C1=O`?
FGF22 binding: inactive

How did COC(=O)[C@@H]1[C@@H](CO)[C@@H]2Cn3c(ccc(-c4ccccc4F)c3=O)[C@@H]2N1Cc1ccccc1 do in these assays?
FGF22 binding: inactive

What do the screens show for `O=S(=O)(N[C@H]1CC[C@H](CCn2cc(Cc3ccccc3)nn2)O[C@@H]1CO)c1ccccc1F`?
FGF22 binding: inactive

What do the screens show for `CN(C)Cc1cn(CC[C@@H]2CC[C@H](N)[C@H](CO)O2)nn1`?
FGF22 binding: inactive

What do the screens show for `N#C[C@@H]1[C@@H](c2ccc(-c3ccncc3)cc2)[C@@H](CO)N1C(=O)C1CCOCC1`?
FGF22 binding: inactive

Results for C[C@H](CO)N1C[C@H](C)[C@@H](CN(C)C(=O)C2CCCCC2)OCCCC[C@H](C)Oc2ccc(NC(=O)Nc3ccccc3)cc2C1=O ?
FGF22 binding: inactive

What do the screens show for `CC(=O)N1CC2(C1)[C@@H](c1ccc(-c3ccc(C#N)cc3)cc1)[C@@H](CO)N2C(=O)C1CC1`?
FGF22 binding: inactive

Results for C[C@@H]1CN([C@H](C)CO)C(=O)c2cc(C3=CCCCC3)cnc2O[C@@H]1CN(C)CC1CCOCC1 ?
FGF22 binding: inactive

What do the screens show for `COc1ccc2c3c([nH]c2c1)[C@H](CO)N(C(=O)C1CC1)CC31CN(Cc2cccc(F)c2)C1`?
FGF22 binding: inactive

Results for COc1ccccc1C#Cc1ccc([C@H]2[C@@H](CO)N(C(=O)C3CCCCC3)[C@H]2C#N)cc1 ?
FGF22 binding: inactive

How did C[C@H](CO)N1C[C@H](C)[C@@H](CN(C)Cc2ccccc2)OCc2cn(nn2)CCCC1=O do in these assays?
FGF22 binding: inactive

What do the screens show for `Cc1noc(C)c1NC(=O)Nc1ccc2c(c1)CC(=O)N([C@H](C)CO)C[C@@H](C)[C@H](CN(C)S(=O)(=O)c1ccccc1)O2`?
FGF22 binding: inactive

Results for CO[C@H]1CN(C)C(=O)c2cc(NC(=O)c3ccc4c(c3)OCO4)ccc2OC[C@@H](C)N(CC2CC2)C[C@@H]1C ?
FGF22 binding: inactive

High-throughput results: PubChem, Broad Institute
